# N370S GC mod – inhibits or activates N370S mutant glucocerebrosidase; P04062; N370S GC spleen homogenate, 4MU-glucoside fluorescence; Potency, µM (highest dose often 59.4 µM), without a hit: at the top dose activity change, negative = inhibition, usual class: inhibitors; hit rate 0.092% among 330,000; AID 2101;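 also: 0% = full enzyme activity and -100% = no enzyme basal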
# KAT2A inh – blocks human GCN5L2 histone acetyltransferase. Potency, µM (doses to about 58.9 µM), inactives show at the highest dose activity change, negative = inhibition, usual class: inhibitors. hit rate 0.21% among 390,000. GCN5L2 HAT assay, ThioGlo1 CoA-SH fluorescence
# Target sequence (Q92830 whole entry, looked up): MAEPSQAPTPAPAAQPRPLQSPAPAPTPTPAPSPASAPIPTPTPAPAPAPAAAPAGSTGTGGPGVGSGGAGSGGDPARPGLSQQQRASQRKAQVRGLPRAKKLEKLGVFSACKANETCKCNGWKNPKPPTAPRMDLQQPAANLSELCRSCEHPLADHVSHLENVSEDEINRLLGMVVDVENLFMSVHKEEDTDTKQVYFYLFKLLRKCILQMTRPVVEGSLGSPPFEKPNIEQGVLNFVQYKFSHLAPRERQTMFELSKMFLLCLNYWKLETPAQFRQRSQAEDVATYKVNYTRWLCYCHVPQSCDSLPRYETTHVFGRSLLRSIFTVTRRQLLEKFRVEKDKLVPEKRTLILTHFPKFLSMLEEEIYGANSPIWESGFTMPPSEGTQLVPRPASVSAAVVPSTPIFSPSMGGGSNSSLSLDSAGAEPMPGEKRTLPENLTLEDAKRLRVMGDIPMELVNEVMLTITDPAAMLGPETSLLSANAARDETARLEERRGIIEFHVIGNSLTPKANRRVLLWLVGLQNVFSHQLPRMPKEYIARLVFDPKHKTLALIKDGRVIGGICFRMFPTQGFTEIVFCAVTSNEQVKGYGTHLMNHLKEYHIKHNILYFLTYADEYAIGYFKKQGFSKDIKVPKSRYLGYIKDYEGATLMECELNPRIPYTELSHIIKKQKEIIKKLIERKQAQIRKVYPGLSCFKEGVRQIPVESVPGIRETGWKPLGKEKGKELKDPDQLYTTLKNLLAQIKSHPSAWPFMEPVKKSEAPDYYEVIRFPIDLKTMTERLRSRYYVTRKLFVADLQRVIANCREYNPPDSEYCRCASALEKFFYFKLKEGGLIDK
#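 Titration-based screen in which CoA formation is detected via maleimide probe ThioGlo1 (50uM) turning fluorescent on thiol reaction; substrates H3(1-25) 75uM and acetyl-CoA 70uM, GCN5L2 20nM, 20 min incubation at room temperature.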
# * hit, by the source's call; ? = inconclusive; . = not tested or not shown; & = joins results of further samples; [ ] = another dose, or the depositor's remark. Calls follow the shape of the dose curve; as a rule, active = well fitted curve in the direction sought with a large enough effect; inconclusive = small, poorly fitted or top-dose-only effect, or another doubt; inactive = no such curve, though single readings can be large; an effect the other way counts as inactive or inconclusive. Unless noted, % is scaled to controls: 0 for no effect and ±100 for the full control effect; potency is read from the fitted curve at half-maximal effect. An excerpt; most or all hits stand in other tables.
# Start of the listing, in advance:
mol	N370S GC mod	KAT2A inh
O=S(=O)(c1cc(Cl)ccc1Cl)N1CCC2(CC1)OCCO2	-5%	-5%
O=C1N(c2ccccc2)C(c2ccc(Cl)cc2)N2CCCN12 (stereo not drawn)	3%	1%

# All compounds of this part, from the first entry:
mol	N370S GC mod	KAT2A inh
O=S(=O)(c1cc(Cl)ccc1Cl)N1CCC2(CC1)OCCO2	-5%	-5%
O=C1N(c2ccccc2)C(c2ccc(Cl)cc2)N2CCCN12 (stereo not drawn)	3%	1%
CCCCc1cc(=O)oc2c3c(cc(OCC(=O)NCCCO)c12)OC(C)(C)CC3	?	-22%
C/C(=N\NC(=O)c1c(C)nc2ccccn12)c1ccco1	-8%	-7%
COc1cccc2c1O/C(=N\O)C(C(=O)Nc1cccc(C)c1C)C2 (stereo not drawn)	5%	1%
CCOCCCNC(=O)CCNC(=O)c1cc(OC)c(OC)c(OC)c1	2%	-17%
CCN(CC)S(=O)(=O)c1ccc(N2CCN(CCOc3ccc(OC)cc3)CC2)nc1	-8%	-3%
CCc1ccc(/C=N/Nc2ncnc3nc[nH]c23)cc1	-2%	1%
CCOc1ccc(C(=O)OCC(=O)NC2CCCC2)cc1OCC	4%	-3%
O=C(O)c1cccc(Cn2c(Cl)c(/C=N/NC(=O)c3ccccc3O)sc2=O)c1	-9%	-12%
NC(=O)CC(NC(=O)c1ccc(Br)cc1)c1ccc(NC2CCCCCC2)c([N+](=O)[O-])c1 (stereo not drawn)	-18%	-4%
C/C(CC(=O)Nc1ccc(C)c(Cl)c1)=N\NC(=O)c1ccco1	4%	-8%
NC(=O)C1CCN(S(=O)(=O)c2cc3c4c(c2)CCN4C(=O)CC3)CC1	-9%	-17%
Cc1onc(-c2ccccc2)c1C(=O)OCc1nnc(-c2ccccc2)o1	-2%	-5%
COc1cccc(/C=N/NC(=O)CSc2nnc(C)n2-c2ccccc2)c1OC	5%	-5%
CCCCOCCO	7%&-2%	.
Cc1ccc(S(=O)(=O)N2CCN(C(=O)CSc3ccc(Cl)cc3)CC2)cc1	-4%	-9%
Cc1ccc(N(CC(=O)NCc2ccc(F)cc2)S(=O)(=O)c2cccs2)cc1	5%	-8%
O=C(CN1CCCC1)N1CCCC(c2ccc(F)cc2)c2ccc(F)cc21 (stereo not drawn)	-1%	4%
COc1ccc(C)cc1-n1cnc2cc(C(=O)NC3CCCC3)ccc21	.	-2%
CC1CCCCC1NC(=O)/C(C#N)=C/C=C/c1ccccc1[N+](=O)[O-] (stereo not drawn)	0%	-18%
CCN(CC)S(=O)(=O)c1ccc2oc(Nc3ccc(OC)cc3)nc2c1	-6%	-6%
O=C1NC(c2ccccc2)C(C(=O)c2cccs2)=C1O (stereo not drawn)	-7%	-4%
O=C(COc1ccccc1)NCc1ccccc1	2%[12.8 µM]	-1%
CCCOc1cccc(C(=O)Nc2cccc3cccnc23)c1	.	0%
Cc1ccc(S(=O)(=O)N(C)Cc2cc3cc(C)ccc3[nH]c2=O)cc1	-6%	2%
CN(NC(N)=O)c1ncc(C(F)(F)F)cc1Cl	-1%	-9%
CCOC(=O)c1c(C)[nH]c(C)c1S(=O)(=O)N1CCC(C(=O)N2CCN(c3cc(C)ccc3C)CC2)CC1	.	-1%
O=C(Nc1ccc(F)cc1Cl)C1Cc2ccccc2N1C(=O)c1ccccc1 (stereo not drawn)	.	-5%
O=C(c1ccco1)N1CCCC(c2nc3c(nnn3Cc3ccc(F)cc3)c(=O)[nH]2)C1 (stereo not drawn)	1%	-2%
COc1ccccc1CNc1ccc(-c2nc(-c3ccncc3)no2)cc1[N+](=O)[O-]	.	1%
O=C(CCCN1CCC(O)(c2cccc(C(F)(F)F)c2)CC1)c1ccc(F)cc1	-13%&-11%	-4%&1%&5%
CCOC(=O)c1c(-c2ccc(OC)c(OC)c2)csc1NC(=O)C1CCCO1 (stereo not drawn)	14%	-8%
CCN(Cc1ccccc1)Cc1cccc([N+](=O)[O-])c1	-15%	-5%
O=C(COc1ccc(/C=N/NC(=O)c2ccncc2)cc1)Nc1cccc([N+](=O)[O-])c1	-14%	-3%
C/C(CCC(=O)O)=N/Nc1ccc([N+](=O)[O-])cc1[N+](=O)[O-]	0%	-6%
COc1cc(/C=C/C(=O)OC(C)C(=O)Nc2c(C)n(C)n(-c3ccccc3)c2=O)ccc1OCC#N (stereo not drawn)	9%	-21%
O=C(NCCc1csc(-c2cccnc2)n1)c1ccco1	-9%	-8%
Cc1ccc(CNC(=O)CCn2cc(-c3ccc(C)cc3)nc2-c2ccncc2)cc1	-5%	-4%
CCOc1ccc(Nc2oc(-c3ccccc3Cl)nc2C#N)cc1	6%	-3%

# Full records, quoted from the list:
# Cc1ccc(CNC(=O)CCn2cc(-c3ccc(C)cc3)nc2-c2ccncc2)cc1 is listed with N370S GC mod = -5%; KAT2A inh = -4%
# CCOc1ccc(Nc2oc(-c3ccccc3Cl)nc2C#N)cc1 is listed with N370S GC mod = 6%; KAT2A inh = -3%

# The main list resumes, starting seven compounds before the break.
mol	N370S GC mod	KAT2A inh
CCN(Cc1ccccc1)Cc1cccc([N+](=O)[O-])c1	-15%	-5%
O=C(COc1ccc(/C=N/NC(=O)c2ccncc2)cc1)Nc1cccc([N+](=O)[O-])c1	-14%	-3%
C/C(CCC(=O)O)=N/Nc1ccc([N+](=O)[O-])cc1[N+](=O)[O-]	0%	-6%
COc1cc(/C=C/C(=O)OC(C)C(=O)Nc2c(C)n(C)n(-c3ccccc3)c2=O)ccc1OCC#N (stereo not drawn)	9%	-21%
O=C(NCCc1csc(-c2cccnc2)n1)c1ccco1	-9%	-8%
Cc1ccc(CNC(=O)CCn2cc(-c3ccc(C)cc3)nc2-c2ccncc2)cc1	-5%	-4%
CCOc1ccc(Nc2oc(-c3ccccc3Cl)nc2C#N)cc1	6%	-3%
O=C(c1cc(-c2ccc(F)cc2)on1)N1CCOCC1	-8%	-17%
O=C(CSc1nnc(NC(=O)c2ccccc2F)s1)NCc1ccco1	-14%	-28%
CCCc1nc2c(C)cc(C)cc2c(N)c1CC	3%	-31%
CC(C)C[C@H](NC(=O)N1CC(=O)Nc2ccccc21)C(=O)N[C@H](C(=O)O)c1ccccc1	5%	-8%
O=c1c(Cc2ccc(Cl)cc2)c(O)ccn1Cc1cccc(Cl)c1	10%	-23%
Cc1ccc(NC2=NCC(=O)N2Cc2cccs2)cc1C	3%	-2%
Cc1ccc2c(c1)N(C(=O)CCC(=O)N1CCOCC1)CCO2	-2%	-5%
Cn1ccnc1SCCNC(=O)CCc1nnc(CCc2ccccc2)o1	1%	3%
CC1(C)Cc2c(sc(NC(=O)c3ccco3)c2C#N)C(C)(C)N1	2%	-16%
Cc1cccc(-n2ncc3c(NCc4ccccn4)ncnc32)c1	9%	-8%
Cc1ccc2ncc(NC(=O)c3ccc(F)cc3)c(=O)n2c1	1%	0%
Cc1cccc(NC(=O)CSc2nc3c([nH]c4ccccc43)c(=O)n2C)c1	0%	-5%&-4%
O=C(COC(=O)C1CC2CCCC(C1)C2=O)Nc1ccc(F)c(Cl)c1 (stereo not drawn)	.	-13%
COc1ccc(Cl)cc1S(=O)(=O)Nc1ncn[nH]1	-4%	-2%
CCOc1ccccc1NC(=O)c1ccc2c(c1)C(=O)N(CC1CCCO1)C2=O (stereo not drawn)	1%	-6%
O=C(Nc1cc(Cl)cc(Cl)c1)C(c1ccccc1)N1CCCCC1 (stereo not drawn)	-10%	-6%
Cc1ccc(CC(=O)O/N=C(\N)c2ccncc2)cc1	2%	?
O=C(CN1C(=O)c2ccccc2S1(=O)=O)NC(Nc1ccccc1F)C(Cl)(Cl)Cl (stereo not drawn)	28%	-8%
CCOC(=O)C1CCCN(C(=O)CCNS(=O)(=O)c2ccc(Br)cc2)C1 (stereo not drawn)	.	-11%
COc1ccc(CCNC(=O)c2noc3c2CCCC3)cc1OC	3%	1%
O=C(Nc1nnc(-c2cccs2)o1)c1ccc(S(=O)(=O)N2CCOCC2)cc1	-2%	0%
CC(C)N(C(=O)[C@H]1CC(CC(=O)NCCN2CCOCC2)C(=O)N2CCc3c([nH]c4ccccc34)[C@]12C)C(C)C (stereo partly drawn)	.	0%
COc1ccc(NC(=O)CCc2ccc(OC)c(OC)c2)cn1	-2%	1%
Cc1cc(NC(=O)CCN2C(=O)/C(=C/c3ccccc3Cl)SC2=S)no1	-4%	-11%
Clc1ccc(OCc2nc(-c3ccc(Br)o3)no2)cc1	6%	-2%
Cc1ccc(Cl)c(OCC(=O)N2CCc3ccccc3C2)c1	0%	-1%
C=CCn1c(=NC(=O)c2cccs2)sc2cc(NC(C)=O)ccc21	20%	-1%
Cc1cc(C)c(S(=O)(=O)Nc2ccc(N(C)C)cc2)c(C)c1-n1cnnn1	2%	-8%
CCOC(=O)c1cccc(NC(=O)c2cnn(-c3ccccc3)c2-n2cccc2)c1	.	-12%
O=c1c(CN2CCN(c3ccccn3)CC2)coc2ccccc12	-29%	-3%
COc1ccccc1OCCCOc1ccc([N+](=O)[O-])cc1Cl	-5%	-3%
O=C(CC1SC(N2CCCCC2)=NC1=O)Nc1cccc(C(=O)NCc2ccc(F)cc2)c1 (stereo not drawn)	-10%	-13%
Cc1nc(C)c(C(=O)N2CCCC(CCC(=O)NCc3ccc(F)c(F)c3)C2)s1 (stereo not drawn)	13%	-2%
O=c1c2c3c(sc2ncn1/N=C/c1cccnc1)CCCC3	2%	1%
O=C(CSc1nnc(CNC(=O)C23CC4CC(CC(C4)C2)C3)n1-c1ccc(F)cc1)Nc1ccccc1	8%	-7%
O=C(CN1C(=O)/C(=C\c2ccc(F)cc2)Oc2ccccc21)N1CCN(c2ccccn2)CC1	-1%	-6%
O=C(Cc1ccc(Cl)cc1)Nc1ccccc1C(=O)N1CCCC1	-6%	-19%
CCOC(=O)[C@H]1[C@H]2COc3ccccc3[C@@H]2N2C(=O)CN(Cc3ccccc3)C(=O)[C@@]12C	.	-1%
Cc1nnc(NC(=O)c2cccc(S(=O)(=O)N3CCOCC3)c2)s1	1%	-3%
O=C(COC(=O)CNC(=O)c1ccccc1)Nc1nc(-c2ccccc2)cs1	-2%	27%

# Sorted by SMILES length (high to low): part of the list above.
mol	N370S GC mod	KAT2A inh
O=C(CSc1nnc(CNC(=O)C23CC4CC(CC(C4)C2)C3)n1-c1ccc(F)cc1)Nc1ccccc1	8%	-7%
O=C(Cc1ccc(Cl)cc1)Nc1ccccc1C(=O)N1CCCC1	-6%	-19%
O=c1c2c3c(sc2ncn1/N=C/c1cccnc1)CCCC3	2%	1%

# Additional results follow.
mol	N370S GC mod	KAT2A inh
CCN(c1ccccc1)c1nc2ccsc2c(=O)s1	20%	-6%
O=C(COC(=O)C1CCCCC1)Nc1cccc(F)c1	.	2%
CC1(C)CCCC2=C1CC1C(=O)N(N)C(=O)C1C2 (stereo not drawn)	-4%	1%
COc1ccc(N(C(=O)c2snc(C(N)=O)c2N)C(C(=O)NC2CCCC2)c2cc(OC)ccc2OC)cc1 (stereo not drawn)	-5%	-13%
Cc1ccc(OCCC(=O)OCC(=O)Nc2ccc(N3CCOCC3)cc2)cc1	-11%	1%
Cc1nn(CC(=O)NNC(=O)c2cccc(Br)c2)c(C)c1[N+](=O)[O-]	-1%	0%
O=C(CSc1nnc(-c2ccc(OC(F)F)cc2)o1)NCc1cccs1	.	1%
CC1=C(CCN2CCN(C(C)C)C(CCO)C2)C(C)(C)CCC1 (stereo not drawn)	-9%	-20%
